Vaccinia mCherry: vaccinia inhibition (mCherry reporter). Vaccinia virus mCherry reporter infection, fluorescence; about a quarter of the inactives have no number. Potency, µM (top dose mostly 36.5 µM), inactives show at the highest dose activity change, negative = inhibition, usual class: inhibitors. 310,000 tested, 0.63% active. AID 720579; active = well fitted inhibition curve with a large enough effect; inconclusive = small, poorly fitted or top-dose-only effect; inactive = no such curve, though single readings can be large or run the other way; tested in A549 cells; also: nearly all actives have a fitted effect of over 35% in size; inactives centre near -10
VACV Venus inh: vaccinia inhibition (Venus reporter); Vaccinia virus Venus reporter expression, fluorescence; Potency, µM (titrated, usually from 36.5 µM), inactives show at the top dose activity change, negative = inhibition, most hits filed as inhibitors; 330,000 tested, 0.46% active; AID 720580; active means well fitted inhibition curve with a large enough effect; inconclusive means small, poorly fitted or top-dose-only effect; inactive means no such curve, though single readings can be large or run the other way; tested in A549 cells; also: nearly all actives have a fitted effect of over 30% in size; inactives centre near -10
* hit, by the source's call; i = inactive; ? = inconclusive; · = no result given; & = joins results of further samples; [ ] = another dose, or the depositor's remark. % is scaled to controls: 0 for no effect and ±100 for the full control effect; potency is read from the fitted curve at half-maximal effect.

The opening two entries (preview)
SMILES | Vaccinia mCherry | VACV Venus inh
Cc1ccc(NC(=O)CSc2ccc(-c3cccs3)nn2)cc1Cl | -3% | -20%
COc1ccc(CCn2c(NN)nc3c2c(=O)[nH]c(=O)n3C)cc1 | -9% | -21%

This part in full, from the start:
SMILES | Vaccinia mCherry | VACV Venus inh
Cc1ccc(NC(=O)CSc2ccc(-c3cccs3)nn2)cc1Cl | -3% | -20%
COc1ccc(CCn2c(NN)nc3c2c(=O)[nH]c(=O)n3C)cc1 | -9% | -21%
CN1CC[n+]2c(CN3C(=O)c4ccccc4C3=O)csc21 | -16% | -12%
CCC(=O)NC(Nc1ccccn1)(C(=O)OC)C(F)(F)F (stereo not given) | -11% | -7%
CCCCC/S(CC1CC1(Cl)Cl)=N\S(=O)(=O)c1ccc(C)cc1 (stereo not given) | -13% | -8%
Cc1ccccc1NC(=O)CN(c1ccc(F)cc1)S(C)(=O)=O | -1% | -10%
Cc1[nH]c2ccccc2c1C(=O)CSC(=S)N1CCCCC1 | -24% | -21%
O=c1cc(-c2ccccc2)n(S(=O)(=O)c2ccc3ccccc3c2)o1 | -13% | 2%
O=[N+]([O-])c1ccc(COc2ccccc2CN2CCCC2)cc1 | -12% | 5%
COc1ccccc1NC(=O)C1=C(C)Nc2nc3ccccc3n2C1c1cccc(Br)c1 (stereo not given) | -11% | 0%
Cc1ccc(-c2sc(C(=O)NN)c(C)c2C#N)cc1 | -11% | -26%
CC(C)n1cc(/C=C2/SC(=O)N(CC(=O)Nc3ccc4c(c3)OCO4)C2=O)c2ccccc21 | -13% | -8%
Cc1ccncc1C(N)=O | -10% | -10%
COc1ccc(CNC(=O)CN(C(=O)CCC(=O)Nc2ccccn2)c2ccccc2OC)cc1 | · | ?
C/C(=N\Nc1cc(-c2ccccc2)nc(-c2ccccc2)n1)c1ccc(O)c(C)c1 | 0% | ?
CC(=O)Nc1nc(C)c(-c2csc(Nc3cccc([N+](=O)[O-])c3)n2)s1 | 5µM* | ?
Cc1ccc(S(=O)(=O)N2CCCCC2)cc1NC(=O)C1COc2ccccc2O1 (stereo not given) | -20% | -23%
CCN(CC(=O)NCc1ccc(Cl)cc1)C(=O)CSc1cc(C)ccc1C | ? | -11%
Cn1c(=O)c2c(nc(SCCN3CCOCC3)n2Cc2ccc(F)cc2)n(C)c1=O | -4% | -12%
COc1cc(C(=O)NNC(=S)Nc2ccc(S(N)(=O)=O)cc2)cc(OC)c1OC | -22% | ?

Continued (2 carried over from the part before).
SMILES | Vaccinia mCherry | VACV Venus inh
Cn1c(=O)c2c(nc(SCCN3CCOCC3)n2Cc2ccc(F)cc2)n(C)c1=O | -4% | -12%
COc1cc(C(=O)NNC(=S)Nc2ccc(S(N)(=O)=O)cc2)cc(OC)c1OC | -22% | ?
O=C(CCc1nc(-c2ccccc2F)no1)NC1CCCCC1 | -9% | -24%
Cc1ccc(S(=O)(=O)N(C)CCCC(=O)NC(C)(C)C)cc1 | i | -1%
O=C(NCc1nnnn1-c1ccc(F)c(F)c1)c1ccc(S(=O)(=O)N2CCOCC2)cc1 | -14% | -12%
Cc1cc(C)c2nc(SCC(=O)Nc3cc(C)on3)c(C#N)cc2c1 | i | 0%
COc1cccc(-c2nc(-c3ccccn3)no2)c1OC | i | -8%
O=[N+]([O-])c1ccc(S(=O)(=O)NCc2nc3cccnc3n2Cc2ccccc2Cl)cc1 | -10% | -14%
COC(C(=O)Nc1ccc(Cl)cc1C)c1ccccc1 (stereo not given) | -13% | -6%
CCN(CC)c1ccc(NC(=O)CSc2nnc(N)s2)cc1C | 2% | 4%
O=C1Nc2ccc(Br)cc2/C1=C/C1CC=CCC1 (stereo not given) | ? | ?
Cn1nc(-c2ccc(N3CCOCC3)c(NS(=O)(=O)c3ccc(Cl)cc3)c2)c2ccccc2c1=O | · | ?
Cc1ccc(NC(=O)C(C)OC(=O)CSc2ccccc2)cc1 (stereo not given) | -2% | -8%
COc1ccccc1NC(=O)CC1CCCC1 | -10% | 7%
CCOc1ccc(S(=O)(=O)c2cn(Cc3ccc(OC)cc3)c3ccc(F)cc3c2=O)cc1 | 1% | -9%
CCOc1ccc(Cn2nnc(C(=O)Nc3cc(OC)cc(OC)c3)c2N)cc1 | -22% | -14%
Cc1c(C)c2ccc(OCC(=O)N3CCN(c4ccc(F)cc4)CC3)c(C)c2oc1=O | -12% | 0%
COCCN(Cc1ccco1)C(=O)C1CCCN(c2ncnc3c2nc2n3CCCCC2)C1 (stereo not given) | -14% | -17%
CN(Cc1cnn(-c2ccccc2)c1)C(=O)c1ccc(S(=O)(=O)NCc2ccco2)cc1 | i | ?
COc1cc(-c2c(-c3cc(OC)c(OC)c(OC)c3)noc2C)ccc1F | -7%&-16% | ?
Cc1ccc(S(=O)(=O)c2cc(OC(=O)c3ccco3)ccc2OC(=O)c2ccco2)cc1 | -24% | -24%
CC1Cc2ccccc2N1C(=S)NC(=O)C1(C)CC1(Cl)Cl (stereo not given) | -18% | -19%
C/C(=N\NC(=O)c1ccc(F)cc1)c1cccc(NC(=O)c2ccco2)c1 | -15% | -10%
COc1cccc(/C=N/NC(=O)c2cccc3ccccc23)c1OC | i | -16%
COc1ccccc1NS(=O)(=O)c1ccc(O)c(C(=O)OCC(=O)Nc2ccccc2F)c1 | i | -10%
O=C(COc1ccccc1)N1CCCC1 | i | 8%
CCCCNC(=O)NC1C(NC(=O)NCCCC)N(C)C(=O)N1C (stereo not given) | · | -10%
CC1CCCC(C)N1C(=O)CSc1nnc(COc2ccccc2)n1-c1ccccc1 (stereo not given) | -19% | -24%
Cc1nc(-c2ccc(Cl)cc2)sc1C1(C)CC(c2cccnc2)=NO1 (stereo not given) | ? | -18%
O=C1CC(c2nc3ccccc3[nH]2)CN1c1ccccc1F (stereo not given) | i | -11%
O=C1c2cccc3cc([N+](=O)[O-])cc(c23)C(=O)N1c1ccccc1O | -23% | 0%
CCOC(=O)c1c(C(F)(F)F)cc(-c2ccc(F)cc2)nc1C | -7% | -15%
CCCN1C/C(=C/c2cccc([N+](=O)[O-])c2)C(=O)/C(=C/c2cccc([N+](=O)[O-])c2)C1 | -4% | -14%
Cc1ccc2cc3cc(C(=O)NCCN4CCOCC4)oc3nc2c1 | i | -26%
O=C(/C=C/c1cn(-c2ccccc2)nc1-c1ccccc1)Nc1ccc(C(=O)O)cc1 | i | -18%
O=C(NC1CCCC1)C(c1ccncc1)N(C(=O)c1ccco1)c1ccc(Cl)cc1 (stereo not given) | -7% | -7%
COCCNC(=O)c1c(-c2ccccc2)c(-c2ccccc2)nn(C)c1=O | -1% | 2%
COc1ccc(-c2nnc(NC(=O)c3cc(Cl)ccc3Cl)o2)cc1 | i | -3%
CCOc1ccc(/C=C/c2cc[n+](C)c3ccccc23)cc1OCC | 11% | 5%
CCCN(CCC)C(=O)c1cn(CC)c2ccc(S(=O)(=O)N3CCCCC3)cc2c1=O | i | -6%
CN1CCN(c2cc(N3CCNCC3)ccc2[N+](=O)[O-])CC1 | ? | ?
Fc1ccc(Nc2ncnc3c2nc2n3CCCC2)cc1 | -6% | -24%
CCc1ccc(N(CC(=O)NCCc2ccccc2)C(=O)CCC(=O)Nc2ccccn2)cc1 | i | -21%
CN(C)c1ccc(-c2csc(C(O)c3ccccc3)n2)cc1 (stereo not given) | 24% | -3%
COc1ccccc1NC(=O)N(O)C1(C#N)CCCCC1 | -21% | -10%
CC(C)CCN1CCN(Cc2cnc(-c3ccccc3)s2)CC1CCO (stereo not given) | -4% | -3%
Cn1c(=O)c2nc(SCC(=O)Nc3ccc(Cl)c(Cl)c3)n(C)c2n(C)c1=O | -21% | -13%
CCCn1c(SCCN2C(=O)c3ccccc3C2=O)n[nH]c1=O | i | -5%
CC(=O)Nc1nc2cc3c(cc2s1)OCO3 | -20% | 3%
COC(C(=O)N1CCC(CCC(=O)Nc2ccccc2)CC1)c1ccccc1 (stereo not given) | i | -6%
O=C(c1ccco1)N1C2C=CC(C2)C1(C(F)(F)F)C(F)(F)F (stereo not given) | -9% | 4%
CCc1ccc(NC(=O)C2CCCCC2C(=O)O)cc1 (stereo not given) | ? | -9%
O=C(CN(C(=O)CCC(=O)Nc1ccccn1)c1ccc2c(c1)OCO2)NCc1ccc(F)cc1 | 5% | 5%
O=C(O)CC(O)(CC(=O)O)C(=O)O | 3%&-4% | 3%&-6%
S=C(NN=C1C2CC3CC(C2)CC1C3)Nc1ccccc1 | i | -7%
O=C(/C=C/c1ccc(S(=O)(=O)N2CCOCC2)cc1)N1CCCCC1 | -1% | -2%
COc1ccc(NC(=O)C(C)N2C(=O)c3ccccc3S2(=O)=O)c(OC)c1 (stereo not given) | -6% | -17%
C/C(=N\NC(=O)CSCc1ccccc1Br)c1cccc([N+](=O)[O-])c1 | i | -10%
COC(=O)c1ccc(N(C(=O)CNC(=O)c2ccco2)C(C(=O)NCC2CCCO2)c2ccc(OC)c(OC)c2)cc1 (stereo not given) | 7% | -9%
COc1ccc(Nc2ncccc2C(=O)O)cc1 | i | -8%
COC(=O)c1cccc(NC(=S)NC(C)C)c1 | -2% | -3%
O=C1C=C(N2CC2)c2ccccc2C1=O | ? | -5%

Record cards (already shown):
Record of `CCc1ccc(N(CC(=O)NCCc2ccccc2)C(=O)CCC(=O)Nc2ccccn2)cc1` : Vaccinia mCherry: i; VACV Venus inh: -21%
Record of `Cn1c(=O)c2nc(SCC(=O)Nc3ccc(Cl)c(Cl)c3)n(C)c2n(C)c1=O` : Vaccinia mCherry: -21%; VACV Venus inh: -13%

Some values from the results shown:
Value for CCc1ccc(N(CC(=O)NCCc2ccccc2)C(=O)CCC(=O)Nc2ccccn2)cc1 under VACV Venus inh: -21%
Value for CCCN(CCC)C(=O)c1cn(CC)c2ccc(S(=O)(=O)N3CCCCC3)cc2c1=O under VACV Venus inh: -6%

(more compounds)
SMILES | Vaccinia mCherry | VACV Venus inh
CN1CCCC1c1ccc(=O)[nH]c1 (stereo not given) | -3% | -7%
COc1ccc(NS(=O)(=O)c2cccc(C(=O)NCC3(N(C)C)CCCCC3)c2)cc1 | i | -12%
COc1ccc(/C=N/NC(=O)CNS(=O)(=O)c2ccc(C)cc2)cc1 | -11% | 6%
CCOC(=O)C1CCCN(C(=O)CCn2nc(-c3ccccc3)ccc2=O)C1 (stereo not given) | -2% | -8%
Cc1ccc(S(=O)(=O)N(C)CC(=O)OCC(=O)N2CCN(c3ccccc3)CC2)cc1 | i | -16%
O=C(COC(=O)CSc1ccc([N+](=O)[O-])cc1)NCc1cccs1 | i | -7%
COCC1CCN(C(=O)c2cc(COc3ccc(C)c(C)c3)on2)C1 (stereo not given) | -11% | -9%
CCNC(=O)c1ccccc1-c1nc(-c2ccccc2)no1 | i[7.34 µM] | 3%[7.34 µM]
Cc1cc2oc(C(=O)Nc3nc(-c4ccccc4)ns3)c(C)c2cc1Cl | -13% | -18%
Cc1ccc(N2C(=O)C(Cc3ccc(O)cc3)NC2=S)cc1C (stereo not given) | -8% | -20%
Cn1c(NNC(=O)C2CCCCC2)cc(=O)n(C)c1=O | -13% | 15%
CCN(CC)c1ccc(/C=C/c2ccc3ccccc3n2)cc1 | i | i
CCC1(C)Cc2ccccc2-c2nc(SC)[nH]c(=O)c21 (stereo not given) | -2% | -19%
Cc1c(Nc2ccc(C=O)cc2)c(=O)n(-c2ccccc2)n1C | -14% | -27%
CCOC(=O)c1c(NC(=O)c2cc(-c3ccc(Cl)cc3)on2)sc2c1CCCC2 | -8% | 2%
NS(=O)(=O)c1ccc(NC(=S)Nc2nn(Cc3ccc(Cl)cc3Cl)cc2Cl)cc1 | -7% | -13%
O=C(c1ccc([N+](=O)[O-])cc1)N1CCN(C(=O)C2CCCCC2)CC1 | i | -4%
Cc1cccc(Nc2nnc(SCC(=O)Nc3ccccc3[N+](=O)[O-])s2)c1 | -3% | -18%
C=CC[n+]1c(-c2ccc(OC)c(OC)c2)csc1NNC(=O)Nc1ccccc1 | ? | ?
CCOc1ccc(/C=N/NC(=O)Cc2csc(Nc3cccc(C(F)(F)F)c3)n2)cc1 | · | ?
Cc1ccc(S(=O)(=O)N2CCN(CC(=O)N(CC(C)C)c3c(N)n(CC(C)C)c(=O)[nH]c3=O)CC2)c(C)c1 | i | -16%
CCOC(=O)C1CCN(C(=O)Cc2cccc3ccccc23)CC1 | -8% | 1%
Cc1ccc(SCC(=O)Nc2ccc3c(c2)C(=O)NC3=O)cc1 | -3% | -12%
COc1ccc(N2CCN(C(=O)Nc3cn(CC(C)C)c(=O)c4ccccc34)CC2)cc1 | -6% | 1%
CCCCn1c(N)c(N(CCC(C)C)C(=O)c2cccc(-n3cnnn3)c2)c(=O)[nH]c1=O | -22% | -2%
O=C(Nc1ccc(O)c2c(=O)cc(-c3ccccc3Cl)oc12)c1ccccc1Cl | i | -1%
O=C(O)c1ccc(NC(=O)c2cn(-c3ccccc3)nc2-c2cccc(Cl)c2)cc1 | -8% | 6%
O=C(CN1CCCC1)NC(=O)NC1CCCC1 | -1% | -6%
Cc1ccc(N(CC(=O)Nc2cc(C)cc(C)c2)S(=O)(=O)c2c(C)noc2C)cc1 | 15%[7.34 µM] | 0%[7.34 µM]
COc1ccc(C(C(=O)NC2CCCC2)N(Cc2cccs2)C(=O)c2ccn[nH]2)cc1OC (stereo not given) | -11% | -9%
CCN1C(=O)c2cccc3c(NC(=O)c4ccc(OC)c(OC)c4)ccc1c23 | -2% | -10%
O=C(NCc1ccc(C(F)(F)F)cc1)C1CC(c2ccc(C(F)(F)F)cc2)=NO1 (stereo not given) | -28% | -14%

Bioassay records from PubChem BioAssay.
